Rce1 inhib: yeast Ras-converting enzyme inhibition | Q03530 | yeast membranes, quenched prenylated peptide cleavage fluorescence | calls only | 290,000 tested, 0.27% active;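 active = fall in fluorescence gain of 50% or more versus controls, with final raw signal at or below 3038400; inconclusive = same 50% fall but final raw signal above 3038400; inactive = fall in fluorescence gain under 50%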;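 also: plate controls were neutral control wells for no effect and wells lacking membranes for full effect; tested at 10 µM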
UUG fidelity: yeast start codon fidelity modulation | AID 602363 | 350,000 tested, 0.13% active | activity score, % at 18.7 µM | S. cerevisiae UUG-firefly luciferase reporter, luminescence/redox ratio;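 active = replicate mean at a twofold rise or more, about +100% in these data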;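 also: firefly luciferase made from a UUG start codon reports start codon fidelity; reporter light over untreated wells divided by growth signal over untreated wells; some hits fall short of that in this replicate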
MT1-MMP act inh: blocks activation of human MT1-MMP. P50281. HT1080 RFP-PRO-GFP cells, GFP/RFP ratio fluorescence, overnight; percent of plate control window, DMSO zero. GFP/RFP ratio change, % at 20 µM. 360,000 tested, 0.061% active. AID 651647;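 active = GFP/RFP ratio change of at least 30% with cell ATP level not reduced by more than half and red fluorescence within 50% of control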; also: strong numbers were not always called active
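Assay system – RFP-PRO-GFP reporter HT1080 cells · Compound dosing – single dose of 20 µM compound, 1% DMSO final · Incubation – overnight compound exposure at 37 °C · Measure – GFP/RFP fluorescence ratio · Benchmarks – DMSO wells and RFP-L50D-GFP cells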
Env fusion inh: inhibitors of HIV Env-mediated cell fusion; inhibition, % at 12.3 µM; 360,000 tested, 1.1% active; HeLa-JRFL Env/CEM21 cell fusion, luciferase;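 active = mean replicate inhibition score of at least 50 and every replicate individually at or above 50; inconclusive = only one of the two criteria met; inactive = mean below 50 and not all replicates reaching 50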;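 also: 0% = plate neutral controls and 100% = maraviroc near 300 nM; one replicate is shown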
eIF4H FP inh: inhibitors of RNA binding by human eIF4H; eIF4H fluorescence polarization binding assay; 290,000 tested, 0.94% active; AID 2012; Q15056; inhibition, % at 35 µM;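 active = 50% or more with normal probe brightness, or confirmed in later tests; inconclusive = above 50% with abnormal brightness, or retests that disagree; inactive = below 50% or failed in later tests; about a fifth of its hits are not listed in these tables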;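 also: calls also rest on retests at 20 µM and on dose response follow-up; 0% = protein and probe with vehicle and 100% = probe without protein; strong numbers were not always called active; many hits fall short of the cut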
PABP FP inh: blocks human PABP binding to poly(A) RNA | fluorescence polarization | inhibition, % at 35 µM | 290,000 tested, 1% active;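 active = 50% or more with normal probe brightness, or confirmed in later tests; inconclusive = above 50% with abnormal brightness, or retests that disagree; inactive = below 50% or failed in later tests; about a fifth of its hits are not listed in these tables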;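 also: calls also rest on retests at 20 µM and on dose response follow-up; controls were probe without protein and protein plus probe with vehicle; some compounds called inactive have numbers as strong as hits; many hits fall short of the cut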
Target sequence (P11940 whole entry, looked up): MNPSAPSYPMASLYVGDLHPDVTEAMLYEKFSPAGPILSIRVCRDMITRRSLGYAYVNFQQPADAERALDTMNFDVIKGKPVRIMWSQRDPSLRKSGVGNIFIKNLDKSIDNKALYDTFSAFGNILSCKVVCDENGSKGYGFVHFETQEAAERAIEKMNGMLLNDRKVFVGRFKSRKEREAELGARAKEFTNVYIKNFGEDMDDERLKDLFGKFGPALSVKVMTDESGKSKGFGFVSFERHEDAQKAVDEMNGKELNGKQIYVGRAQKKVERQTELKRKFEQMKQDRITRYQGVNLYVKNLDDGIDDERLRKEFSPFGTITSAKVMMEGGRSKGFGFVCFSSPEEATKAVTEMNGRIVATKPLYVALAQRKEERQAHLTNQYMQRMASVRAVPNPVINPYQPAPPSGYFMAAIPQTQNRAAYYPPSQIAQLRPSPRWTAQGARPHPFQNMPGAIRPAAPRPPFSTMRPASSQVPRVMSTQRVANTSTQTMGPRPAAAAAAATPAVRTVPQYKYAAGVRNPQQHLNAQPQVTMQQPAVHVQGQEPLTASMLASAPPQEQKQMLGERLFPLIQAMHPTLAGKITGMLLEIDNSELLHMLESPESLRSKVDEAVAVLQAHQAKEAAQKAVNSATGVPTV
CSC inhib: cancer stem cell inhibition. AID 2717. 300,000 tested, 1.1% active. inhibition, % at 7.5 µM. cancer stem cell-like cells viability, luminescence;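 active = mean at 75% or more and at least half the replicates too; inconclusive = mean and replicates disagree; tested in HMLE shEcad cells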;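 also: 0% = median of negative and 100% = median of positive control wells; the first replicate is given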
MT1-MMP act inh RFP: also measured in MT1-MMP act inh; calls as there; RFP signal change, %; measured here: RFP expression control read;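 0 = vehicle wells; hits needed this value within 50% of zero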
* marks the source's active call; other numbers are inactive results; i = inactive; ? = inconclusive; . = not tested or not shown; & = joins results of further samples; [ ] = remark or other dose. Outcome played no part in choosing rows; about 3% have a hit in one of these screens.

SMILES	Rce1 inhib	UUG fidelity	MT1-MMP act inh	MT1-MMP act inh RFP	Env fusion inh	eIF4H FP inh	PABP FP inh	CSC inhib
CCCCC(=O)NC1(C(F)(F)F)C(=O)N(Cc2ccco2)C(C)=C1C(=O)OC (stereo unspecified)	i	-13	12	4	-36	0	6	-18
COc1ccc(Cc2nc3ccccc3n2C)cc1	i	.	4	5	-5	-3	2	-12
COc1ccc(CCNC(=O)c2cnn3c(C(F)F)cc(C)nc23)cc1OC	i	1	1	2	14	5	-6	-5
CC(=O)Nc1ccc(NC(=O)c2ccc([N+](=O)[O-])cc2Cl)cc1	i	-12	0	3	3	4	4	5
COc1ccc(-n2c(SCC(=O)NCC3CCCO3)nc3ccccc3c2=O)cc1Cl (stereo unspecified)	.	-3	-6	4	4	.	.	.
CCn1c(SCC(=O)c2cc(OC)ccc2OC)nnc1C(C)C	i	-10	-4	6	10	-6	10	1
O=C(N/N=C/c1c[nH]c2ccccc12)c1ccc(O)c(O)c1	i	-17	-3	1	1	-11	-2	6
Cc1ccc(-c2c(C)n([O-])c3c([n+]2=O)CCC3)cc1	i	.	-1	6	-11	7	11	-8
CC(=O)NC(O)C(=O)c1ccco1 (stereo unspecified)	i	-16	1	5	.	-5	-11	0
O=C(CS(=O)(=O)c1ccc(F)cc1)NCc1ccccc1	i	-16	3	0	.	.	.	.
O=C(COC(=O)c1cccc(S(=O)(=O)N2CCCC2)c1)Nc1ccccc1Cl	.	7	-3	3	1	.	.	.
COc1cccc(N(C(=O)c2nc3nccc(C)n3n2)c2nc3ccccc3s2)c1	i	.	-6	-18	-207	4	4	12
CCCCn1c(=O)c(Cc2ccccc2)c(O)c2ccccc21	i	-8	0	-1	.	5	8	.
Cn1ncc([N+](=O)[O-])c1C(=O)NCc1ccccc1	i	.	1	0	-12	-10	4	-15
O=C1NC(=O)C(CSc2ccccc2)(c2ccccc2)N1 (stereo unspecified)	.	-15	3	4	-18	.	.	.
O=C(COc1ccc(Cl)cc1)NNC(=S)NCc1ccccc1	i	-16	1	1	-5	8	-7	2
CCN(CC)CCCNC(=O)c1cc(Nc2ccc(OC)cc2)nc2ccccc12	i	0	-1	0	33	-4	2	6
CCN(C(=O)Cn1c(=O)oc2cc(S(=O)(=O)N3CCCC3)ccc21)c1ccc(OC)cc1	i	19	-3	0	7	0	-15	5
CCOc1ccc(OCC)c(NC(=O)Nc2ccc3c(c2)N(C)C(=O)CS3)c1	i	-11	3	-6	-5	-5	-11	6
O=Cc1c[nH]c2ccc(C(=O)c3ccccc3)cc12	i	0	3	-2	2	-9	0	24
CC1CCCN(CCCOc2ccc(Cl)cc2Br)C1 (stereo unspecified)	i	.	-6	-2	7	11	-2	54
CCn1nc(C)cc1C(=O)N1CCc2c([nH]c3ccccc23)C1c1cc(F)ccc1F (stereo unspecified)	i	.	-5	-1	-53	-8	1	-5
O=c1c(C(c2ccccc2)c2c(O)nc3n(c2=O)CCCS3)c(O)nc2n1CCCS2	i	-6	-9	2	-36	-2	17	-16
Cc1ccccc1S(=O)(=O)Cc1ccc(C(=O)NCCN(CC(C)C)CC(C)C)o1	i	-7	0	0	1	-9	-12	11
CCOC(=O)NCCOC(=O)Nc1ccc(Cl)cc1	i	-26	0	2	?	14	18	4

Following part
SMILES	Rce1 inhib	UUG fidelity	MT1-MMP act inh	MT1-MMP act inh RFP	Env fusion inh	eIF4H FP inh	PABP FP inh	CSC inhib
COCCCNC(=O)C1CCC(CNS(=O)(=O)c2ccc3c(c2)N(C(C)=O)CCO3)CC1 (stereo unspecified)	i	-4	2	0	6	7	5	9
COC(=O)c1ccc(COC(=O)c2cccn2C)o1	i	-11	-6	0	-3	-9	-1	0
COc1ccc(S(=O)(=O)N(C)C)cc1NCC(=O)Nc1ccc(F)cc1F	i	.	5	4	13	0	-6	-3
CN(CC(=O)Nc1ccccc1C(F)(F)F)C(=O)c1ccc(-c2ccc(Cl)cc2)o1	i	0	2	-3	0	.	.	4
CC(=O)Nc1ccc(S(=O)(=O)Nc2nc(CN3CCOCC3)nc3sc4c(c23)CCCC4)cc1	.	-4	3	7	.	10	18	-1
Cc1cccc(C)c1NC(=O)CN1CCN(C(=O)CNC(=O)c2ccc(-c3ccccc3)cc2)CC1	.	-2	-6	-20	-9	.	.	.
CCN1C(=O)/C(=C/c2cn(C)nc2C)SC1=S	i	-9	-3	0	-3	2	20	.
Cc1ccc(S(=O)(=O)NC(C)(C)CSc2nnc(Nc3ccccc3)s2)cc1	i	-4	1	-19	58*	-13	-11	23
O=C(NC1CCS(=O)(=O)C1)/C(=C\c1ccccc1)NC(=O)c1ccccc1 (stereo unspecified)	i	.	-3	1	20	-4	-7	0
Cc1ccc(Cl)cc1-n1ncc2c(NNC(=O)c3ccco3)ncnc21	i	-29	4	-2	3	3	-27	-2
Cc1cccc(OC(C)C(=O)N2CCCN(C)CC2)c1C (stereo unspecified)	i	-1	-4	5	.	-3	-17	-16
CCS(=O)(=O)NCC(c1ccco1)N1CCN(c2ccccc2F)CC1 (stereo unspecified)	i	.	12	1	-33	1	10	-5
O=C(CCNS(=O)(=O)c1ccccc1)NCCCSc1ccccc1	i	4	-2	3	5	-5	7	-1
CCCC(=O)Nc1cccc(C(=O)Nc2nccs2)c1	i	-13	5	2	22	1	-8	13
COc1ccc(Nc2nc(-c3cccnc3)nc3ccccc23)cn1	i	-17	-45	-3	5	?	?	3
Cc1c(CCC(=O)N2CCC[C@H]2C(=O)O)c(=O)oc2cc3oc4c(c3cc12)CCCC4	i	4	0	-1	.	13	18	0
c1csc(-c2nc3nc4ccccc4nc3n2Cc2ccc3c(c2)OCO3)c1	.	-4	-12	-19	-41	-7	-8	6
Brc1c(CSc2nc3ccccc3s2)nc2ncccn12	i	.	-2	-6	-1	-3	3	2
COc1ccc(-n2nnnc2SCC(=O)N(C)C2CCS(=O)(=O)C2)cc1 (stereo unspecified)	.	.	1	5	-1	.	.	0
COC(=O)Cc1c(O)ccn(CCc2ccccc2)c1=O	i	-18	2	4	9	-13	-6	-6
Cn1c(=O)oc2cc(S(=O)(=O)NCCC(=O)NC3CCCc4ccccc43)ccc21 (stereo unspecified)	i	-1	9	-4	.	-8	20	-2
CC(C)CN(C(=O)CN(C)C(=O)Cc1ccccc1Cl)c1c(N)n(CC(C)C)c(=O)[nH]c1=O	i	-7	-1	1	.	-9	-10	.
CCOC(=O)C1=C(c2ccccc2)N=c2s/c(=C\c3cccc(O)c3)c(=O)n2C1c1cccs1 (stereo unspecified)	i	.	-30	-20	18	2	1	99*
CCc1ccccc1NC(=O)N[C@H](C(=O)O)C(C)C	i	.	4	6	.	-1	6	8
CCn1c(Cc2ccccc2)nnc1SCC(=O)Nc1nc(C)c(C)s1	i	-4	2	1	-11	-2	18	.

Four entries from above, ordered by length of the SMILES, highest first.
SMILES	Rce1 inhib	UUG fidelity	MT1-MMP act inh	MT1-MMP act inh RFP	Env fusion inh	eIF4H FP inh	PABP FP inh	CSC inhib
Cc1cccc(C)c1NC(=O)CN1CCN(C(=O)CNC(=O)c2ccc(-c3ccccc3)cc2)CC1	.	-2	-6	-20	-9	.	.	.
COCCCNC(=O)C1CCC(CNS(=O)(=O)c2ccc3c(c2)N(C(C)=O)CCO3)CC1 (stereo unspecified)	i	-4	2	0	6	7	5	9
COc1ccc(S(=O)(=O)N(C)C)cc1NCC(=O)Nc1ccc(F)cc1F	i	.	5	4	13	0	-6	-3
COC(=O)c1ccc(COC(=O)c2cccn2C)o1	i	-11	-6	0	-3	-9	-1	0

Remaining list, next part
SMILES	Rce1 inhib	UUG fidelity	MT1-MMP act inh	MT1-MMP act inh RFP	Env fusion inh	eIF4H FP inh	PABP FP inh	CSC inhib
COc1ccc(-c2csc(NC(=O)COC(=O)C3=COCCO3)n2)cc1	i	.	-2	1	-17	-14	-21	-10
Cc1ccc(OCCC(=O)OCC(=O)Nc2ccc(Cl)cn2)cc1	.	-24	0	4	.	30	26	-1
O=C(c1cnsn1)N1CCC(CO)(Cc2ccc(Cl)cc2)CC1	i	-10	0	-2	23	-2	0	-12
COc1ccc(-c2noc(-c3ccccc3C(=O)Nc3cccnc3)n2)cc1	i	-16	-1	-4	.	0	-2	-6
CCc1ccc(N2CC(O)(c3cccs3)[N+]3=C2SCCC3)cc1 (stereo unspecified)	i	.	-3	-6	-62	-10	5	24
Cc1cc(C)c(-n2c(SCCS(=O)(=O)c3ccc(F)cc3)n[nH]c2=O)c(C)c1	i	.	6	-3	22	4	5	13
COC(=O)C1=C(C)N(Cc2ccccc2)C(=NCCN2CCOCC2)N[C@H]1CCc1ccccc1	.	0	-1	0	-4	.	.	-10
O=C(c1ccco1)N1CCN(C(c2ccccn2)c2nnnn2C2CCCC2)CC1 (stereo unspecified)	i	3	2	1	.	8	-13	-4
COc1cccc(NC(=O)c2ccccc2-c2nc(-c3ccc(F)cc3)no2)c1	i	.	3	-1	.	-10	11	-2
COc1ccc(C(=O)/C=C/Nc2cccc(O)c2)cc1	i	-74	-64	1	-500	16	22	20
O=C(O)COc1ccccc1-c1nc(-c2ccccc2)c(-c2ccccc2)[nH]1	i	3	-4	-8	6	2	3	33
O=C(O)CCC1(C(=O)O)CCC(=O)c2ccccc21 (stereo unspecified)	.	-9	4	5	7	.	.	.
CCOC(=O)c1cc2c(=O)n3ccccc3nc2n(CC(C)C)c1=NC(=O)c1c(-c2c(F)cccc2Cl)noc1C	i	.	-12	-16	-37	8	-8	44
CC1=C(C(=O)OCC2CCCO2)C(c2ccc(F)cc2)NC(=O)N1 (stereo unspecified)	i	-2	10	6	8	0	-3	-8
CC1Oc2ccccc2C(=O)N(CC(=O)c2ccc3c(c2)OCCO3)C1=O (stereo unspecified)	i	.	0	2	-9	-8	2	6
COc1ccc(OCC(=O)NNC(=O)c2c(-c3ccccc3Cl)noc2C)cc1	i	.	-1	-1	-18	0	1	-4
C=CCOC(=O)C1=C[C@@H](c2ccc3c(c2)OCO3)C[C@@H](OCCCCO)O1	i	4&16	-1	4	-1[16.7 µM]	.	.	.
O=C(OCc1cc2ccccc2[nH]c1=O)c1ccc([N+](=O)[O-])cc1	i	.	-1	1	7	13	3	1
O=C(NC1(C(F)(F)F)C(=O)Nc2c1c(=O)[nH]c(=O)n2-c1ccccc1)c1cccnc1 (stereo unspecified)	.	-17	1	3	-31	-10	-4	-4
O=C(c1ccc(-c2ccccc2)cc1)N1CCN(c2ncccn2)CC1	.	-22	4	1	-58	-10	-8	3
CSc1ccc(CC(=O)N2CCC(n3nccc3NC(=O)C3CC3)CC2)cc1	i	-18	5	2	-23	-8	4	1
CCc1nc2cccnc2n1-c1ccc(CC(=O)NCCOC)cc1	i	-30	-4	0	-7	28	19	-5
Cc1nc2c(-c3ccc(F)cc3)cnn2c(N)c1-c1ccccc1	i	-68	12	-5	-450	-8	3	68
O=C(Nc1cccc(F)c1)/C(=C\c1cccnc1)NC(=O)c1ccco1	i	.	2	4	2	1	0	-17
Clc1nccc(N2CCN(c3ccccc3Cl)CC2)n1	i	-10	2	-3	3	.	.	0
O=C(NC1CCCCCC1)c1cc2c(=O)n3ccccc3nc2s1	i	-11	-4	-4	-2	-11	-4	8
O=C1C=CC(=O)N1c1cccc(-c2ccccc2)c1	i	.	3	4	-25	-10	-4	57
O=C(NCC(NS(=O)(=O)OCC(Cl)(Cl)Cl)c1ccccc1)C(F)(F)F (stereo unspecified)	i	-22	2	5	-4	-2	10	8
CC(C)CC(c1nnnn1C(C)(C)C)N1CCN(C2CCCC2)CC1 (stereo unspecified)	i	-17	-3	1	.	-2	-3	-15
COC(=O)c1cc(OC)c(OC)cc1NC(=O)CCCCCN1C(=O)CCC1=O	i	6	0	0	.	-4	3	-13

Screens as filed in PubChem BioAssay.
